# Bioassay records as filed in PubChem.
# MenB inh: Mtb MenB enzyme inhibition; P9WNP5; MenB enzyme assay, absorbance read-out; some hits fall short of the stated cut; inhibition, %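 (about 12 µg/mL by stock and volumes)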; hit rate 0.43% among 100,000;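 active means mean of two replicates above 30%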;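 further: 0% = no compound and 100% = wells with inactive enzyme; the first replicate is given; strong numbers were not always called active; inactives centre near -10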
# Mtb MbtI inh: blocks the Mycobacterium tuberculosis siderophore enzyme MbtI; hit rate 0.89% among 100,000; P9WFX0; inhibition, %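 (about 17 µg/mL by stock and volumes)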; purified MbtI enzyme, fluorescence intensity read-out;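 active means above 50% in both replicates, above 80% if mildly self-fluorescent; inactive means the rest, strongly fluorescent compounds included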;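 further: 0% = mean of negative and 100% = mean of positive controls; one replicate is shown; some compounds called inactive have numbers as strong as hits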
# Target sequence (P9WFX0 whole entry, looked up): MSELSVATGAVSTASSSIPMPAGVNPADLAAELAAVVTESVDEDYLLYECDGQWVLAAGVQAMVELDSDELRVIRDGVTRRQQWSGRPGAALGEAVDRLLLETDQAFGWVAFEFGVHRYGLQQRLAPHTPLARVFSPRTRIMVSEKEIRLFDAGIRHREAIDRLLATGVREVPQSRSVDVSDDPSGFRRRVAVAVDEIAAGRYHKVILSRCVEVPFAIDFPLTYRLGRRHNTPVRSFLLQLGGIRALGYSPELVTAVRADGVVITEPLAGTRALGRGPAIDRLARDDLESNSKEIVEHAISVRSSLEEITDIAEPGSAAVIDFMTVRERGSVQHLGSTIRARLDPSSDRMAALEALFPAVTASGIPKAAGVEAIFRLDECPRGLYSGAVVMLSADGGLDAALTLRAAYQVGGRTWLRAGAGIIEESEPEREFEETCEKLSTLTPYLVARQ
# Polio RdRp inh: poliovirus RNA polymerase inhibition; P03300; poliovirus polymerase elongation, fluorescence polarization; active compounds read low; % elongation, % (compound at 16.7 µg/mL); hit rate 0.66% among 150,000; AID 588519; in the data active means % elongation below about 90%; further: some results filed as inactive read as strong as hits
# Target sequence (P03300 1749-2209 limits assumed): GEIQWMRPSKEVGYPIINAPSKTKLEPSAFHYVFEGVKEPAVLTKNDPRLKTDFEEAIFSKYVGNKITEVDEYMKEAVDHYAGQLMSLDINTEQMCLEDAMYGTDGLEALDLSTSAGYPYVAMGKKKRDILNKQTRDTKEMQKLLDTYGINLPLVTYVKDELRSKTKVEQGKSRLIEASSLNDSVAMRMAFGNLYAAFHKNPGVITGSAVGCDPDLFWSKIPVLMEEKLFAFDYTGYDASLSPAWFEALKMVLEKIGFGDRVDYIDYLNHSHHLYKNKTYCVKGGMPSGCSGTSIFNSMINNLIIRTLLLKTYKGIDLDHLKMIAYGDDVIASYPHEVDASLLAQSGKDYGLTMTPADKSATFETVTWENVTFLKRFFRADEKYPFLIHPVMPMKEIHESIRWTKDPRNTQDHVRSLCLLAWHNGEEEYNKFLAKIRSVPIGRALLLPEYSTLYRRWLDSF
# Polio RdRp inh intensity: recorded beside Polio RdRp inh, whose call it bears; % elongation; measured here: total intensity read-out; formula for this scale not given here;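 total fluorescence in place of polarization; lower means less elongation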
# An asterisk follows results filed as active; i = inactive; / = no result given; & = joins results of further samples.
compound,MenB inh,Mtb MbtI inh,Polio RdRp inh,Polio RdRp inh intensity
O=C(O)C(O)(c1ccc(Br)cc1)c1ccc(Br)cc1,/,-8,105,107
O=C1CC(NC(=O)N2CCn3cccc3C2c2ccccc2F)CN1c1ccccc1 (configuration not stated),-30,-4,105,104
N#CC(C#N)=C1C=CN(c2ccc(Br)cc2)C=C1,-10,-4,106,170
Cc1ccc(-n2ncc3c(=S)nc[nH]c32)cc1,-11,-7,102,102
O=C(CN1C(=O)CCC1=O)Nc1nc2ccccc2s1,4,22,100,100
COC(=O)CSc1nc(-c2ccccc2)nc2c1Cc1cc(Br)ccc1O2,-11,-11,104,108
CCC(Cc1ccccc1)NC(=O)c1ccco1 (configuration not stated),-51,-17,/,/
Cc1cc(C)c(C#N)c(=N)o1,1,109,55*,81*
CCOc1cc(C(=O)CCC(=O)NCc2ccco2)ccc1O,7,9,105,99
O=C(NC(=O)C(F)(F)F)NC1(C(F)(F)F)OCCO1,-17,5,98,102
COc1ccc2c(C)nc(/N=C(/N)NC(=O)c3ccccc3)nc2c1,5,30,104,102
CCOC(=O)Nc1oc2ccccc2c(=O)c1CN1CCOCC1,-31,i,103,106
Cc1ccc(NC(=O)COc2ncnc3ccccc23)cc1C,/,-8,99,103
CCNC(=O)C1CCCc2c1[nH]c1ccc(Cl)cc21 (configuration not stated),-4,8,105,106
CCN(Cc1ccccc1)C(=O)c1oc(=O)c2ccccc2c1-c1ccc(C)cc1,-16,6,104,106
O=S(=O)(c1ccccc1)c1ccc2c(c1)Sc1ccccc1N2,-21,0,101,145
CCOC(=O)N1CCN(C(=O)Cc2cccs2)CC1,-23,-2,105,105
N#Cc1ccc2c(c1)nc1c3cccc4cccc(c(=O)n21)c43,-3,-41,94,122
COC(=O)CSc1nnc2[nH]c(=O)cc(C)n12,-5,29,105,103
OCc1cn(CC(O)COc2ccccc2Cl)c2ccccc12 (configuration not stated),-54,/,101,102
Cc1[nH]c2ccccc2c1C(=O)COC(=O)c1ccncc1,-2,-1,123,149
c1cncc(CNc2nc3ccccc3n3cnnc23)c1,-12,-1,105,107
Cc1ccc(-c2nn(C(C)(C)C)c3ncnc(N)c23)cc1,-1,-23,100&99,103&102
COC(=O)CN1C(=O)COc2ccc(Cl)cc21,-22,3,101,101
O=C(NCc1ccco1)C1CCN(c2nc3ccccc3n2Cc2ccccc2F)CC1,0,7,99,103
CC(C)(C)c1ccc(C(=O)N2CCC(C(=O)NN)CC2)cc1,2,-8,102,103
Cc1cc(-n2c(C)cc(/C=C/C(=O)N3CCN(Cc4cccs4)CC3)c2C)no1,2,31,108,101
c1ccc(-c2nc(COc3ncnc4sccc34)cs2)cc1,-34,5,106,107
CC1CCCCN1C(=O)c1cc(=O)c2ccccc2o1 (configuration not stated),-19,4,104,104
CCCC(=O)C1=C(N2CCN(C3=C(C(=O)CCC)C(=O)CC(C)(C)C3)CC2)CC(C)(C)CC1=O,-26,10,107,102
COC(=O)C1(c2ccccc2)NC(c2ccccc2C)C2C(=O)N(C)C(=O)C21 (configuration not stated),-54,-8,102,103
CC1(C)CC2(CC(C)(C)N1)OC(=O)N(Cc1ccccn1)C2(C)O (configuration not stated),-15,/,103,108
O=C1S/C(=C\c2ccccc2)C(=O)N1CCN1C(=O)S/C(=C\c2ccco2)C1=O,-13,-2,110,108
Cc1cc(C)nc(NS(=O)(=O)c2ccc(NC(=O)C3(c4ccccc4)CCOCC3)cc2)n1,1,4,101,100
CCCN1CCN(C(=O)c2cccc3c2C(=O)N(CCOC)C3)CC1,-8,-4,102,103
CC(=O)Nc1nn2c(-c3ccco3)nnc2s1,-35,21,99,102
O=C(CSc1cccc[n+]1[O-])N1CCc2ccccc21,/,3,100,97
CSc1ncc(Cl)c(C(=O)Nc2sc3c(c2C(=O)NCc2ccco2)CCCC3)n1,-11,-8,102,106
CN(C)c1ccc(/C=C2\SC(=O)N(Cc3ccccc3)C2=O)cc1,-26,-4,103,100
CC1=C(C#N)C(c2ccc(C#Cc3ccccc3)s2)C2=C(CCCC2=O)N1 (configuration not stated),-52,28,101,100
N#C/C(=C\c1cn(Cc2ccccc2)c2ccccc12)C(=O)Nc1ccccc1O,-92,2,97,110
O=c1c(-c2nc(-c3ccc(Cl)cc3)no2)cnc2n1CCS2,-24,2,101,92
Cc1ccc(NC(=O)c2sc3nc(SCC(=O)NCc4ccco4)n(N)c(=O)c3c2C)c(C)c1,-17,i,102,102
O=C(O)c1ccc(S(=O)(=O)C(F)F)cc1,-17,2,98,103
N#CCCSc1nnc(Cc2cccc3ccccc23)n1C1CCCCC1,-39,-1,108,106
COc1ccc(C(=O)Nc2cc3c4c(c2)CCC(=O)N4CCC3)cc1OC,-11,0,105,104
O=c1cc(CN2CCN(c3ccccc3)CC2)occ1OC/C=C/c1ccccc1,-6,-4,101,102
Cc1c(/C(Cc2ccccc2)=N/O)c2ccccc2n1C,1,5,102,102
O=C(CNc1ccccc1OC(F)F)N1CCc2ccccc21,-38,-3,104,108
CC(C)(/C=N/Nc1nc2ccccc2o1)CO,3,13,101,101

# Further compounds.
compound,MenB inh,Mtb MbtI inh,Polio RdRp inh,Polio RdRp inh intensity
Cc1cc(C(=O)NCc2csc(-c3cccs3)n2)nn1C,3,64,101,98
CCC1=Nc2cc(C(=O)N3CCC4(CC3)OCCO4)ccc2Sc2ccccc21,-15,-6,101,99
CC(C)(C)/C(O)=C/c1nc2ccccc2oc1=O,64*,-2,97,95
O=C(O)Cn1cnc2scc(-c3cccs3)c2c1=O,-28,28,101,106
NC(=O)C1CCN(C(=O)CSCc2cnn(-c3ccccc3)c2-n2cccc2)CC1,-8,-14,105,109
C=CCn1c(=S)[nH]c2cc(C(=O)O)ccc2c1=O,0,14,104,106
O=C(CCN1N=C(c2ccccc2)CCC1=O)NCc1ccccc1,5,3,104,99
O=C(CSCc1cnn(-c2ccccc2)c1-n1cccc1)NCCC1=CCCCC1,-7,-5,100,101
O=C1CN(C(=S)NCCN2CCOCC2)c2ccccc2N1,-13,3,99,101
CC1(C)CC(N2CCN(C3CC(C)(C)NC(C)(C)C3)CC2)CC(C)(C)N1,-33,/,105,103
CC1=N/C(=C2/C=C(c3cccs3)Oc3ccccc32)C(=O)O1,2,-6,98,102
COc1cc2c(cc1NS(C)(=O)=O)c1c(n2S(C)(=O)=O)CCC1,-44,-3,103,107
CN(c1ccc(C(=O)O)cc1)S(C)(=O)=O,-14,2,104,109
Cc1cc(C)c2oc3nc(N)c(C#N)cc3c(=O)c2c1,-19,4,105,106
COc1cc(CN(C)C)c(O)c(CN(C)C)c1,-1,-3,102,106
N#CC1(NC(=O)COC(=O)C2CCN(C(=O)Nc3ccccc3)CC2)CCCCC1,-17,1,100,101
COc1ccc2nc(-n3c(C)ccc3C)sc2c1,-4,4,101,104
CC1CCCCN1C(=O)COC(=O)c1n[nH]c2ccccc12 (configuration not stated),1,94,98,97
COCC(=O)Nc1nc(-c2ccccc2)cs1,-2,4,102,105
Cc1ccc2nc3sc(C#N)c(N)c3cc2c1,10,-4,98,110
Cc1oc(-c2cccc(F)c2)nc1CSCC(=O)O,0,13,101,100
O=C1Nc2ccccc2/C1=N\n1cnc2ccccc21,-26,-6,102,103
C=CCOn1c(=O)c(-c2ccc(C)cc2)[n+]([O-])c2ccccc21,-11,-6,100,103
COc1ccc(NC(=O)COc2nc(N(C)C)nc(N(C)C)n2)cc1,-24,1,101,101
CNc1nc(-c2ccc(OC)cc2)c(C)s1,/,-7,101,105
COc1ccc(OC)c(/C=C/C(=O)N(C)CCOc2ccccc2)c1,-23,63,/,/
COC(=O)c1ccc(C2NC(=O)NC3=C2C(=O)CC(C)(C)C3)cc1 (configuration not stated),10,-3,105,109
Cn1nc(C(F)(F)F)c(-c2cccc(C(F)(F)F)c2)c1NC(=O)c1nccnc1C(=O)O,-6,-7,100,105
CCn1c(SCC(=O)c2ccc(C)cc2)nnc1C1CC1,25,6,99,100
COC(=O)CSCc1nc(N)nc(Nc2ccccc2C)n1,-2,2,105,100
O=C(Nc1ccccc1C(=O)O)c1cccs1,27,89*,98,98
CCN(C(=O)/C=C/c1ccco1)c1nc2c(C)cccc2s1,-13,-5,98,105
COc1ccc(NC(=O)c2ccc3ncsc3c2)cc1,-15,-1,104,106
Cc1ccc(C)c(NC(=O)C(NC(C)C)c2ccccc2)c1 (configuration not stated),-28,-15,106,105
COc1ccc(NC(=O)CCSc2nc(C)cs2)cc1,-44,10,101,101
COc1ccc(OC)c(/C=C2\C(=O)C3CCN2CC3)c1,-81,6,104,103
O=S(=O)(Nc1ccccc1N1CCCCC1)c1ccccc1,-3,8,102,98
C#C[C@]1(O)CCC2C3CCc4cc(O)ccc4C3CC[C@@]21C (some centres not stated),-9,-10,102,101
O=C(CN1CSCC1=O)Nc1ccc2nc(N3CCOCC3)sc2c1,-41,6,101,106
COc1ccc2c(CNCc3ccccc3)c(C(=O)O)[nH]c2c1,-22,115,103,102
C=Cn1cc[n+](CC(=O)c2ccc(C)cc2)c1,-46,-3,106,101
COc1cccc(S(=O)(=O)NCc2ccc(C(=O)N3CCCC3)cc2)c1,0,-14,100,102
CCSc1nnc(SCC(=O)Nc2ccc(S(=O)(=O)N3CCCC3)cc2)s1,-5,-7,114,123
O=C(Nc1ccccn1)C12CC3CC(CC(C3)C1)C2,0,-8,103,102
CCOC(=O)Nc1ccc2c(CN3C(=O)NC(CC)(CC)C3=O)cc(=O)oc2c1,0,-84,106,114
Cc1cc(C)n2nc(SCC(=O)NC(C)C(C)C)nc2n1 (configuration not stated),-3,-9,114,127
O=C1CC(NC(=O)C(F)(F)F)=NN1c1ccccc1,-19,-5,99,103
O=C(CCN1C(=O)C2CC=CCC2C1=O)OCc1ccc(Cl)cc1 (configuration not stated),-6,9,103,99
CC(C(=O)NCc1ccco1)N1C(=O)c2ccccc2C1=O (configuration not stated),-14,-15,103,104
Cc1cc(C)n2nc(CNC(=O)Nc3ccccc3C(F)(F)F)nc2n1,-30,-6,105,103

# (more compounds)
compound,MenB inh,Mtb MbtI inh,Polio RdRp inh,Polio RdRp inh intensity
NC(=O)c1ccc(OCC2CCCO2)cc1 (configuration not stated),-4,25,98,109
COc1coc(C(=O)O)c1OC,6,90,100,100
COc1ccc(NC(=O)CSc2nc3c(cc2C#N)CCC3)cc1,-82,-7,101,103
NCCc1nc2ccccc2[nH]1,5,/,103,110
Cc1ccc(S(=O)(=O)c2c(N)n(Cc3ccco3)c3nc4ccccc4nc23)cc1,-31,107,/,/
CC(C)Nc1nc(-c2ccccc2)nc2ccccc12,-6,2,102,108
COc1ccccc1/C=C/C=N\N1CCN(c2ccccc2)CC1,-27,10,100,101
O=C(Cc1ccccc1)NCCSc1ccccc1,-20,-6,97,104
O=C(NCc1cccs1)c1cc2cccc3c2n1CCS3,-29,135,103,107

# Structures from the list above that contain an aryl methoxy group (16):
compound,MenB inh,Mtb MbtI inh,Polio RdRp inh,Polio RdRp inh intensity
COc1ccc2c(C)nc(/N=C(/N)NC(=O)c3ccccc3)nc2c1,5,30,104,102
COc1ccc(C(=O)Nc2cc3c4c(c2)CCC(=O)N4CCC3)cc1OC,-11,0,105,104
COc1cc2c(cc1NS(C)(=O)=O)c1c(n2S(C)(=O)=O)CCC1,-44,-3,103,107
COc1cc(CN(C)C)c(O)c(CN(C)C)c1,-1,-3,102,106
COc1ccc2nc(-n3c(C)ccc3C)sc2c1,-4,4,101,104
COc1ccc(NC(=O)COc2nc(N(C)C)nc(N(C)C)n2)cc1,-24,1,101,101
CNc1nc(-c2ccc(OC)cc2)c(C)s1,/,-7,101,105
COc1ccc(OC)c(/C=C/C(=O)N(C)CCOc2ccccc2)c1,-23,63,/,/
COc1ccc(NC(=O)c2ccc3ncsc3c2)cc1,-15,-1,104,106
COc1ccc(NC(=O)CCSc2nc(C)cs2)cc1,-44,10,101,101
COc1ccc(OC)c(/C=C2\C(=O)C3CCN2CC3)c1,-81,6,104,103
COc1ccc2c(CNCc3ccccc3)c(C(=O)O)[nH]c2c1,-22,115,103,102
COc1cccc(S(=O)(=O)NCc2ccc(C(=O)N3CCCC3)cc2)c1,0,-14,100,102
COc1coc(C(=O)O)c1OC,6,90,100,100
COc1ccc(NC(=O)CSc2nc3c(cc2C#N)CCC3)cc1,-82,-7,101,103
COc1ccccc1/C=C/C=N\N1CCN(c2ccccc2)CC1,-27,10,100,101
